# Compound activity (PubChem BioAssay)
# HCMV NEC inh: cytomegalovirus nuclear egress complex inhibition; HTRF UL50-UL53 interaction, normalized percent inhibition; inhibition, % (no concentration beside the values); 0.15% of 190,000 active;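 active = both replicates at 50% or more, plus weaker picks with an unusually low signal ratio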;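 also: stock transfer was 100 nL into about 20 µL; 0% = negative control wells and 100% = wells with untagged competitor protein; inactives centre near -12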
# Sa growth inh: S. aureus growth inhibition. relative growth, % (concentration not given with the values). 0.53% of 170,000 active. S. aureus RN4220 growth, OD600, 20 h, 42 °C; stronger effect = lower value;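 active = growth at 42 °C up to 50% and 20 or more points under that at 30 °C, or under 10% at both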;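 also: 300 nL library stock went into each well; scaled to the means of positive and negative controls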
# GIV Gai3 FP: inhibitors of GIV GBA-motif binding to rat Galpha-i3; P08753; Galpha-i3/FITC-GIV peptide fluorescence polarization, 90 min; stronger effect = lower value; scaled: aluminum fluoride 0%, vehicle 100%; percent of control (FP), % (test concentration not listed); 0.42% of 210,000 active;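 active = replicate mean at 85% of control or lower, very high polarization wells dropped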;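 also: wells of about 15 µL received 100 nL stock; the first replicate is given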
# Target sequence (P08753 whole entry, looked up): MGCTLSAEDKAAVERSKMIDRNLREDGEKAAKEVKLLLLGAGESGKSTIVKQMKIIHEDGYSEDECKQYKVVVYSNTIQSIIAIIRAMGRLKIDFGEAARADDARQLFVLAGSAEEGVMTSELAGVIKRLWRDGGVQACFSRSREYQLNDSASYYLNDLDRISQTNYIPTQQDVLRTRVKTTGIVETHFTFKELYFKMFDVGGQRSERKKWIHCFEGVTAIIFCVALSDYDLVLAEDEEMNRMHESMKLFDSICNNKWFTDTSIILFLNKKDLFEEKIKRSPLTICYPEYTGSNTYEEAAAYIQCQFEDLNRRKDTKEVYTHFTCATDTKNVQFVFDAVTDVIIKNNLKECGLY
# Sa growth inh second temp: also measured in Sa growth inh; calls as there; relative growth, %; measured here: growth at 30 °C;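 optical density after 20 h as mean of two plates; 100% = untreated growth and lower means inhibition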
# An asterisk follows results filed as active; · = no result given. Only part of the results is shown; count on the stated rates, not on these rows.
SMILES,HCMV NEC inh,Sa growth inh,GIV Gai3 FP,others
COc1cc2c(cc1OC)[C@@]13CCN4CC5=CCO[C@H]6CC(=O)N2[C@H]1[C@H]6[C@H]5C[C@H]43,·,99,·,Sa growth inh second temp=96
C[C@]12CC[C@H](O)CC1=CC[C@@H]1[C@@H]2CC[C@@]2(C)[C@H]1CC[C@]2(C)O,·,95,·,Sa growth inh second temp=86
COc1ccc2c(c1)C1(CCN(S(=O)(=O)c3ccc4c(c3)OCCO4)C1)C(=O)N2 (centres undefined),·,·,104,
CCCC1=C(C(=O)OCC)C2(C(=O)Nc3ccc(Cl)cc32)C(C#N)=C(N)O1 (centres undefined),·,·,113,
O=C(Nc1nc2ccccc2s1)c1cccn(Cc2ccc(Br)cc2)c1=O,·,·,109,
Cc1cc(O)c2c(c1)OC(C)(C)C1=C2CC(C)CC1 (centres undefined),·,·,104,
O=C(Nc1nc2ccccc2s1)c1cccn(Cc2c(F)cccc2Cl)c1=O,·,·,103,
CC(=O)C1C(=O)NC23CCCCC2C1c1ccccc1O3 (centres undefined),·,·,111,
N#CCCN1CC2CC(C1)c1cccc(=O)n1C2 (centres undefined),·,·,99,
CCOC(=O)C1=C(C)OC(N)=C(C#N)C12C(=O)Nc1ccc(F)cc12 (centres undefined),·,·,108,
CN1CCCc2cc(C(=O)N3CCC4(CC3)OCCO4)sc21,·,·,95,
O=C(O)c1ccc2c(c1)C1C(Cl)C(Sc3ccccc3[N+](=O)[O-])CC1C(c1ccccc1F)N2 (centres undefined),·,·,102,
Cc1cccc(C)c1-n1nnnc1C1(N(C)O)CCCCC1,·,·,110,
COC(=O)C1C(=O)NC2(C)CC1c1cc(OC)ccc1O2 (centres undefined),·,·,112,
CC(C)OC(=O)C1=C(N)OC2=C(C(=O)CC(C)(C)C2)C12C(=O)Nc1ccccc12 (centres undefined),·,·,105,
CCCC1=C(C(=O)OC(C)(C)C)C2(C(=O)Nc3ccccc32)C(C(=O)OCC)=C(N)O1 (centres undefined),·,·,105,
CC12CC[C@H]3[C@@H](CCC4(O)C[C@H](O)CCC34/C=N/NC(=O)c3ccncc3)C1(O)CCC2C1=CC(=O)OC1 (some centres undefined),·,·,110,
Cc1cccc2sc(NC(=O)c3cccn(Cc4ccc(Br)cc4)c3=O)nc12,·,·,102,
CCC(=O)OC1(c2ccccc2)CCN(C)CC1CC (centres undefined),·,·,106,
CN1CCC(N(C)c2nc(-c3ccncc3)nc3c2CCC3)CC1,·,·,107,
CC(=O)OC1(c2ccccc2)CC(C)N(CC(C)C)C[C@@H]1C (some centres undefined),·,·,101,
CCCCOc1cc(C)cc2oc(=O)c3c(c12)CCCC3,·,·,110,
CN1CC=C(c2noc(CCC(=O)NCCN3CCN(c4cccc(Cl)c4)CC3)n2)CC1,·,·,109,
CCCNC(=O)N1CCC2(C1)C(=O)Nc1ccc(OC)cc12 (centres undefined),·,·,98,
COCCOC(=O)C1=C(N)Oc2c(c(=O)oc3ccccc23)C12C(=O)Nc1ccccc12 (centres undefined),·,·,108,
CN1C2C=C(N(C(=O)c3ccccc3)c3ccccc3)CC1CC2 (centres undefined),·,·,103,
CC1=C(C(=O)OCc2ccccc2)C2(C(=O)Nc3ccc(F)cc32)C(C#N)=C(N)O1 (centres undefined),·,·,101,
O=C(c1c[nH]c2ccc(S(=O)(=O)N3CCC4(CC3)OCCO4)cc2c1=O)N1CCC2(CC1)OCCO2,·,·,102,
Clc1cccc(-n2nnnc2C2(N3CCOCC3)CCCCC2)c1,·,·,112,
O=C1CC(c2ccccc2)c2cnn(-c3nc4ccccc4s3)c2N1 (centres undefined),·,·,97,
CC1=C(C(=O)OCc2ccccc2)C2(C(=O)Nc3ccccc32)C(C(=O)OC(C)(C)C)=C(N)O1 (centres undefined),·,·,115,
CCOC(=O)C1=C(N)Oc2n[nH]c(-c3ccccc3)c2C12C(=O)Nc1ccccc12 (centres undefined),·,·,113,
CCCCn1c(=O)c(C(=O)Nc2nc3ccc(F)cc3s2)c(O)c2ccccc21,·,·,103,
Cc1ccc(N2C3=[N+](CCCCC3)CC2(O)c2ccccc2)cc1 (centres undefined),·,·,122,
O=c1cccc2n1CC1CC2CN(C(=S)NCCc2ccccc2)C1 (centres undefined),·,·,116,
CCOC(=O)Cc1csc(NC(=O)c2c(O)c3c(n(Cc4ccco4)c2=O)CCCC3)n1,·,·,112,
COc1ccc2c(c1)C1(CCN(S(=O)(=O)c3ccc4c(c3)oc(=O)n4C)C1)C(=O)N2C (centres undefined),·,·,105,
Cc1ccc2c(c1)C1CN(C)CCC1N2C(=O)C1CCC1 (centres undefined),·,·,105,
Cc1ccc(OCC(=O)N2CCN(Cc3cc(=O)n4nc(-c5ccccc5)sc4n3)CC2)cc1,·,·,101,
O=C(O)c1ccc2c(c1)C1C(Cl)C(Sc3ccccc3[N+](=O)[O-])CC1C(c1ccc(F)cc1)N2 (centres undefined),·,·,107,
O=C(O)C1C2CCC(C2)C1C(=O)N1CC2CC(C1)c1cccc(=O)n1C2 (centres undefined),·,·,113,
COc1ccc2c(c1)C1(CCN(C(=O)C3CCC3)C1)C(=O)N2 (centres undefined),·,·,108,
CC(=O)OC1(c2ccccc2)CCN(C)C2CCCC21 (centres undefined),·,·,109,
CCOc1cc(C)cc2oc(=O)c3c(c12)CCCC3,·,·,104,
Cc1csc(NC(=O)c2cccn(Cc3ccccc3)c2=O)n1,·,·,105,
COCCOC(=O)C1=C(C)OC(N)=C(C(=O)OC(C)C)C12C(=O)Nc1ccccc12 (centres undefined),·,·,105,
Cc1cccc(C)c1-n1nnnc1C1(N2CCCC2C(=O)O)CCCCC1 (centres undefined),·,·,106,
CC(C)n1cnnc1C1CCCNC1 (centres undefined),·,·,110,
COc1ccc2c(c1)C1(CCN(S(=O)(=O)c3ccc4c(c3)OCCO4)C1)C(=O)N2C (centres undefined),·,·,104,
CC(=O)OC1(c2ccccc2)CCN(C(C)(C)C)CC1C (centres undefined),·,·,101,
# (continued)
SMILES,HCMV NEC inh,Sa growth inh,GIV Gai3 FP,others
CCOC(=O)C1=C(N)OC(C)=C(C(=O)OC(C)(C)C)C12C(=O)Nc1ccccc12 (centres undefined),·,·,108,
CCOC(=O)C1C(=O)N(C)C2(C)CC1c1cc(OC)ccc1O2 (centres undefined),·,·,113,
N#CC1=C(N)Oc2c(c(=O)oc3ccccc23)C1c1ccc(OC(=O)N2CCOCC2)cc1 (centres undefined),·,·,114,
CCCNC(=O)N1CCC2(C1)C(=O)N(C)c1ccc(OC)cc12 (centres undefined),·,·,103,
COCCOC(=O)C1=C(N)OC2=C(C(=O)CC(C)(C)C2)C12C(=O)Nc1ccccc12 (centres undefined),·,·,109,
Cc1ccc2nc(NC(=O)c3cccn(Cc4ccc(Br)cc4)c3=O)sc2c1,·,·,113,
COc1ccc2c(c1)C1(CCN(S(=O)(=O)c3c(C)noc3C)C1)C(=O)N2 (centres undefined),·,·,105,
O=[N+]([O-])c1ccccc1SC1CC2C(c3ccc(Cl)cc3)Nc3ccc(Br)cc3C2C1Cl (centres undefined),·,·,110,
CCCCOC(=O)COc1cc(C)cc2oc(=O)c3c(c12)CCCC3,·,·,110,
O=S1(=O)c2ccccc2-c2ccccc21,·,·,97,
O=C(CN1C(=O)CN=C(c2ccccc2)c2cc(Br)ccc21)NNc1c2ccccc2nc2ccccc12,·,·,108,
COc1ccc(C2(CCNCc3ccc(Cl)cc3)CCOC(C)(C)C2)cc1 (centres undefined),·,·,105,
CC(=O)Nc1ccc(C)cc1S(=O)(=O)N1Cc2ccccc2-n2cccc2C1c1ccc(C)cc1 (centres undefined),·,·,103,
O=C1NC(=O)C(=Cc2ccc(OCc3ccc([N+](=O)[O-])cc3)c(Br)c2)C(=O)N1,·,·,102,
CCOC(=O)C1=C(NC(=O)c2ccccc2)c2ccccc2CC12CCCCC2,·,·,103,
COCC1=C(C(=O)OC)C2(C(=O)N(C(C)=O)c3ccccc32)C(C#N)=C(N)O1 (centres undefined),·,·,101,
O=[N+]([O-])c1ccc(C2Nc3c(Cl)cc(Cl)cc3C3C(Cl)C(Sc4ccccc4[N+](=O)[O-])CC23)cc1 (centres undefined),·,·,116,
COc1ccc2c(c1)C1(CCN(C(=O)C(C)(C)C)C1)C(=O)N2C (centres undefined),·,·,106,
O=C(Cc1cccc(F)c1)N1CCN(Cc2noc(-c3ccccc3)n2)CC1,·,·,101,
COCC1=C(C#N)C2(C(=O)Nc3ccccc32)C(C(=O)OC)=C(N)O1 (centres undefined),·,·,110,
COc1ccc2c(c1)C1(CCN(C(=O)Nc3ccc4c(c3)OCCO4)C1)C(=O)N2C (centres undefined),·,·,98,
CCOC(=O)c1c(CSc2ccccc2)n(Cc2ccccc2)c2ccc(O)cc12,·,·,106,
COc1ccc(CCC(=O)N2CCC3(C2)C(=O)N(C)c2ccc(OC)cc23)cc1 (centres undefined),·,·,102,
CCOc1cc(C2C(C#N)=C(N)Oc3c2c(=O)oc2ccccc32)ccc1OC(=O)c1cccs1 (centres undefined),·,·,110,
NNC(=O)CN1C(=O)CN=C(c2ccccc2)c2cc(Br)ccc21,·,·,106,
N#CC1=C(N)Oc2c(c(=O)oc3ccccc23)C1c1ccc(OCc2ccccc2)cc1 (centres undefined),·,·,106,
CC1CC(O)(C#N)C2CCCCC2N1 (centres undefined),·,·,99,
CCOC(=O)c1c(C)n(C2CCCCC2)c2cc(Br)c(OC(C)=O)cc12,·,·,102,
O=C(c1cccc2c1NC(c1ccc(Br)cc1)C1CC(Sc3ccccc3[N+](=O)[O-])C(Cl)C21)N1CCCC1 (centres undefined),·,·,102,
Cc1cc(N2CCNCC2)c2ccccc2n1,·,·,124,
CCOC(=O)N(c1ccccc1)P1OCC(C)(C)CO1,·,·,122,
O=C(CCc1nc(C2=CCN(Cc3ccc(Cl)cc3)CC2)no1)NC1CCCCC1,·,·,107,
N#CC1=CN(c2cc(F)ccc2F)c2ccc(F)cc2S1(=O)=O,·,·,110,
COc1ccc2c(c1)C1(CCN(C(=O)C(C)(C)C)C1)C(=O)N2 (centres undefined),·,·,107,
CCCCS(=O)(=O)N1CCC2(C1)C(=O)N(C)c1ccc(OC)cc12 (centres undefined),·,·,107,
Cc1ccc2c(c1)C1CN(C)CCC1N2C(=S)NC1CCCCC1 (centres undefined),·,·,108,
COC(=O)[C@@]1(c2ccccc2)C[C@H](CN2CCC3(CC2)C(=O)NCN3c2ccccc2)Oc2ccc(OC)cc21,·,·,103,
CCOP(=O)(OCC)C(NC(=O)c1cccc(C)c1)C(Cl)(Cl)Cl (centres undefined),·,·,108,
CNC1(c2nnnn2-c2ccccc2)CCCCC1,·,·,105,
CC(C)C(=O)OC1N=C(c2ccccc2Cl)c2cc(Br)ccc2NC1=O (centres undefined),·,·,107,
O=C(Nc1cccc(Cl)c1)N1C[C@H]2C[C@@H](C1)c1cccc(=O)n1C2,·,·,103,
BrCCN1CCn2c3c(c4cc(C5CCCCC5)ccc42)CCCC31 (centres undefined),·,·,98,
Cc1cccc(-n2nnnc2C2(N(C)C)CCCCC2)c1,·,·,104,
CCOC(=O)C1=C(C)NC(=O)NC1c1cc(C)cc(N(CCCl)CCCl)c1 (centres undefined),·,·,113,
O=C(c1ccccc1F)c1cc(Br)ccc1NC(=O)c1c(O)c2ccccc2[nH]c1=O,·,·,109,
COc1ccccc1NC(=O)CCc1nc(C2=CCN(Cc3cccc(Cl)c3)CC2)no1,·,·,166,
Cc1cc2c(c(=O)o1)C1(C(=O)Nc3ccccc31)C(C(=O)OCc1ccccc1)=C(N)O2 (centres undefined),·,·,105,
COc1cc(C2C(C#N)=C(N)Oc3c2c(=O)oc2ccccc32)ccc1OC(=O)c1cccs1 (centres undefined),·,·,106,
COc1cc2c(cc1O)CCNC2C (centres undefined),·,·,103,
CCCCCCCCCC(=O)N1c2ccc(C)cc2C2CN(C)CCC21 (centres undefined),·,·,105,
Cc1cccc(Cc2cnc[nH]2)c1C,-16,·,·,

# Gathered by group: the entries above with a cyano group
SMILES,HCMV NEC inh,Sa growth inh,GIV Gai3 FP,others
CCCC1=C(C(=O)OCC)C2(C(=O)Nc3ccc(Cl)cc32)C(C#N)=C(N)O1 (centres undefined),·,·,113,
N#CCCN1CC2CC(C1)c1cccc(=O)n1C2 (centres undefined),·,·,99,
CCOC(=O)C1=C(C)OC(N)=C(C#N)C12C(=O)Nc1ccc(F)cc12 (centres undefined),·,·,108,
CC1=C(C(=O)OCc2ccccc2)C2(C(=O)Nc3ccc(F)cc32)C(C#N)=C(N)O1 (centres undefined),·,·,101,
N#CC1=C(N)Oc2c(c(=O)oc3ccccc23)C1c1ccc(OC(=O)N2CCOCC2)cc1 (centres undefined),·,·,114,
COCC1=C(C(=O)OC)C2(C(=O)N(C(C)=O)c3ccccc32)C(C#N)=C(N)O1 (centres undefined),·,·,101,
COCC1=C(C#N)C2(C(=O)Nc3ccccc32)C(C(=O)OC)=C(N)O1 (centres undefined),·,·,110,
CCOc1cc(C2C(C#N)=C(N)Oc3c2c(=O)oc2ccccc32)ccc1OC(=O)c1cccs1 (centres undefined),·,·,110,
N#CC1=C(N)Oc2c(c(=O)oc3ccccc23)C1c1ccc(OCc2ccccc2)cc1 (centres undefined),·,·,106,
CC1CC(O)(C#N)C2CCCCC2N1 (centres undefined),·,·,99,
N#CC1=CN(c2cc(F)ccc2F)c2ccc(F)cc2S1(=O)=O,·,·,110,
COc1cc(C2C(C#N)=C(N)Oc3c2c(=O)oc2ccccc32)ccc1OC(=O)c1cccs1 (centres undefined),·,·,106,
